Bioassay records as filed in PubChem.
TRPML1 ag – agonists of human TRPML1 channel | activation, % (test concentration not listed) | Q9GZU1 | TRPML1-expressing cells, Ca2+ dye fluorescence, FDSS; host cell line not named in the record; reference of the full effect not given here | 0.12% of 410,000 active | AID 624414; in the data active = activation above about 50%; inconclusive = about 30% to 50%; inactive = below about 30%; further: 0% is about no effect; the text of the record puts the active cut at 80%
Target sequence (Q9GZU1 whole entry, looked up): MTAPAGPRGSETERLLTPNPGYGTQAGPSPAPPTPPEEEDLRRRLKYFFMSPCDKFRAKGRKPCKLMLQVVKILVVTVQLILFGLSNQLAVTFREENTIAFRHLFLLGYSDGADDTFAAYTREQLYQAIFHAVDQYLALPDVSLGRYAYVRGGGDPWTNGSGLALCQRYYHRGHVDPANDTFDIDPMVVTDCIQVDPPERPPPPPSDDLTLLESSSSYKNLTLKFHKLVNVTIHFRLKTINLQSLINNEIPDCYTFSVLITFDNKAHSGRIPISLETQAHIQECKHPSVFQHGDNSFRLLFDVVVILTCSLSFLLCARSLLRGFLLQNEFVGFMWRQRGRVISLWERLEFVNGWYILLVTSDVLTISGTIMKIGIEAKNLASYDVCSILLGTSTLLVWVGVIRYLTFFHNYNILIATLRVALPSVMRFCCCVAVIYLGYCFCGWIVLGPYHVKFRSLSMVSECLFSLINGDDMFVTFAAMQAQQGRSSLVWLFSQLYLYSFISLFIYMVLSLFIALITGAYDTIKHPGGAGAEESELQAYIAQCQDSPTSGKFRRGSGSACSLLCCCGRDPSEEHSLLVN
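In this qHTS format, compounds were pin-transferred onto Ca8-dye-loaded TRPML1-DL cells induced with Tet overnight, and intracellular Ca2+ fluorescence was recorded kinetically for 110 s after a 10 s baseline. A subsequent 4uM final 54-4 (EC80) addition followed by a second 110 s read served as the antagonist phase.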
Six1-Eya2 blk – inhibitors of human Six1/Eya2 interaction; AID 651725; activity change, % (no concentration beside the values); AlphaScreen GST-Six1/His-Eya2 binding, biochemical; stronger effect = lower value; control for the full effect not named in the record; Q15475+O00167; 0.56% of 360,000 active; in the data active = activity change below about -65%; inconclusive = about -30% to -65%; inactive = above about -30%; further: on the % scale 0 is the no-effect control and ±100 the full control effect; compound concentration not given in the record
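GST-Six1 + His-Eya2 (5X stock: 250/500 nM); Tris pH 8.0, 300 mM NaCl, 0.05% BSA, 0.02% Tween 20; GSH donor/Ni acceptor beads; 1 h 37 °C dark; AlphaScreen readout.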
PINK1 modulator – modulators of PINK1 expression. Potency, µM (top dose mostly 76.6 µM), for inactives: top-dose activation (PINK1 increase), actives largely listed as activators. 0.2% of 410,000 active. PINK1 immunofluorescence, high-content cytometry, 24 h; active = well fitted activation curve with a large enough effect; inconclusive = small, poorly fitted or top-dose-only effect; inactive = flat fitted curve, though single readings scatter; cell line not stated here;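 further: potency means the concentration at half of the fitted maximal effect; % of control where 0% means no effect; nearly all actives have a fitted effect of over 65% in size; a mitochondrial uncoupler was the plate control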
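Cells are seeded, rested 12 hours, then given compound at five concentrations or DMSO for 24 hours. After fixation, blocking and antibody staining, PINK1 amount and mitochondrial localization are scored; CCCP serves as control.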
D2 PAM – positive allosteric modulators of human D2 dopamine receptor. DiscoveRx D2 beta-arrestin cells, luminescence, 90 min; 100% = 57 uM dopamine signal. potentiation, % (no concentration beside the values). 0.23% of 360,000 active. AID 624464; active = potentiation of 50% or more; inconclusive = 30% to 50%; inactive = 30% or less;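 further: compound concentration not given in the record; tested on top of an EC20 dose of dopamine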
Target sequence (P14416 whole entry, looked up): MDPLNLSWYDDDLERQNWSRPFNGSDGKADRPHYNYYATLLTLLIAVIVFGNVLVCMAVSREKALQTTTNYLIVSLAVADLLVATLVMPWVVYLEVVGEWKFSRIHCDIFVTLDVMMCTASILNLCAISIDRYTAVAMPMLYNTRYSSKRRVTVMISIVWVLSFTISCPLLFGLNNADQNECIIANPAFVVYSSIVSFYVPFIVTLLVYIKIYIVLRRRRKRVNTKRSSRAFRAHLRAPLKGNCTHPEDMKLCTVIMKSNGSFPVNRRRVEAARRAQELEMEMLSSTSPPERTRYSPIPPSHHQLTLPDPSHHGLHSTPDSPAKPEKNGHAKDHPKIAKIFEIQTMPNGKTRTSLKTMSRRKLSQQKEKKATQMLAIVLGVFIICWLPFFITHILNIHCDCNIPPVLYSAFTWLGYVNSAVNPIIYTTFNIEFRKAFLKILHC
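PathHunter D2 cells, attached overnight at 37 deg C, received compound in DMSO plus dopamine at EC20 (50 nM final) for 90 min at 37 deg C. Beta-arrestin recruitment was read as luminescence after 1 h with detection reagent at ambient temperature.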
D2 ag – human D2 receptor agonism in beta-arrestin assay; 0.084% of 360,000 active; DiscoveRx PathHunter D2 beta-arrestin, luminescence, 90 min; 100% = 57 uM dopamine signal; AID 624465; P14416; activation, % (concentration not given with the values); in the data active = activation above about 40%; inconclusive = about 15% to 40%; inactive = below about 15%; further: compound concentration not given in the record; the text of the record calls up to 30% inactive
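DiscoveRx PathHunter D2 beta-arrestin cells (2,100/well) attached overnight, then compound-stimulated 90 min at 37 C in HBSS/10 mM HEPES/0.1% Tween-20 buffer; beta-galactosidase complementation read by luminescence after 1 h at ambient temperature. Dopamine 57 uM final (EC100) as control.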
CtBP-E1A blk – CtBP/E1A binding inhibition; AlphaScreen GST-E1A/His-CtBP binding, 1536-well; stronger effect = lower value; control for the full effect not named in the record; activity change, % (test concentration not listed); AID 651724; 0.49% of 340,000 active; in the data active means activity change below about -65%; inconclusive means about -30% to -65%; inactive means above about -30%; further: on the % scale 0 is the no-effect control and ±100 the full control effect; compound concentration not given in the record
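GST-E1A and His-tagged CtBP (125 nM each as 5X stock) were preincubated with pin-transferred compound for 2 h at 37 °C in the dark, then glutathione donor and nickel acceptor beads were added for 1 h before AlphaScreen reading.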
Numbers without * were called inactive; ? = inconclusive; . = no result given; [ ] = remark or other dose.

cpd	mol	TRPML1 ag	Six1-Eya2 blk	PINK1 modulator	D2 PAM	D2 ag	CtBP-E1A blk
1	Cc1ccc(C)c(NCCCCC(=O)O)c1	-0.3	1	4.1%	1	3.0	7
2	COCCCNC(=O)c1cc(S(=O)(=O)N2CCC3(CC2)OCCO3)ccc1F	0.2	-4	0.2%	-3	-0.6	11
3	O=C(c1cccc(F)c1)N1CCN(Cc2cccc(Br)c2)CC1	.	-3	-1.4%	-24	0.7	.
4	Cn1nc(-c2ccccc2)c(/C=N/O)c1Cl	0.7	2	0.4%	1	-2.4	-6
5	CCOC(=O)c1ccc(NC(=O)NC2=NCCS2)cc1	0.1	6	7.8%	-8	-1.3	-14
6	CC(c1ccccc1)N1C(=O)C2C3C=CC(C4CC34)C2C1=O (configuration not stated)	1.3	-19	1.1%	-5	0.9	-11
7	CCOC(=O)C1=CN(Cc2cccc(F)c2)S(=O)(=O)N(CC)C1c1ccc2ccccc2c1 (configuration not stated)	-0.6	2	0.6%	-11	0.4	-9
8	O=C(CC1OC(=O)c2ccccc21)NNC(=O)c1ccc(F)cc1 (configuration not stated)	-0.7	7	-0.3%	8	-1.7	.
9	COc1ccc(-c2cc(C)no2)cc1S(=O)(=O)N1CCOc2ccc(C)cc21	0.0	-8	5.6%	5	-2.1	4
10	Cc1ccc2[nH]c(=O)c(CN(CC3CCCO3)C(=O)c3cccs3)cc2c1 (configuration not stated)	3.6	-7	-0.1%	-2	1.5	-23
11	CCNC(=S)Nc1ccc(S(=O)(=O)Nc2cc(C)nc(C)n2)cc1	0.0	5	-0.9%	-2	-1.5	4
12	CCOC(=O)C1CCN(C(=O)C2CCN(c3nn4c(=O)cc(C)nc4s3)CC2)CC1	0.2	3	-1.2%	-8	-0.6	-10
13	COc1cccc(N2CCN(CC(=O)Nc3nnc(-c4ccccc4)s3)CC2)c1	1.7	?	2.5%	0	-0.5	-23
14	NC(=NCCc1ccccc1)NS(=O)(=O)c1ccccc1	0.6	-8	1.9%	-27	-1.9	-5
15	Cc1cccc(OCCOC(=O)c2ccc(F)c(S(=O)(=O)N3CCOCC3)c2)c1	3.5	13	1.4%	-2	-0.4	-4
16	CCc1noc(C)c1C(=O)N(CC)CC(=O)NCc1ccc(Cl)cc1	-0.7	9	0.5%	-16	-0.9	.
17	COc1ccccc1N(CC(=O)NCCSCc1ccc(C)cc1)S(=O)(=O)c1ccccc1	3.9	-19	0.2%	1	4.5	-22
18	CCC(CO)Oc1cc(NC(=O)c2ccccc2F)c2ncn(C(C)C)c2c1 (configuration not stated)	0.6	-2	0.0%	2	6.8	-25
19	O=C(Nc1cccc(Cl)c1)c1cccnn1	0.1	7	2.2%	-6	-2.6	34
20	O=C(NC1CCN(C(=S)Nc2ccc(Cl)cc2)CC1)C1CCCCC1	0.8	18	-0.9%	-2	-0.4	0
21	CCOc1ncccc1C(=O)Nc1ccc(S(=O)(=O)N2CCCC2)cc1	1.8	4	7.1%	2	0.7	0
22	CCn1nc(C)cc1C(=O)N1CCCC(Nc2ccc(C(C)C)cc2)C1 (configuration not stated)	0.7	0	-2.0%	3	-7.5	-3
23	CCOCCCNC(=O)CN1C(=O)CSc2ccccc21	-0.5	2	2.7%	-7	-3.0	2
24	Fc1ccc(NC(=S)NN=Cc2ccccc2Cl)cc1	3.1	-20	13%	-16	4.3	-11
25	Cc1cc(C)cc(NC(=O)c2ccc(CNc3c(N4CCCC4)c(=O)c3=O)cc2)c1	-0.1	-22	2.3%	-5	-2.2	-24

Additional structures.
cpd	mol	TRPML1 ag	Six1-Eya2 blk	PINK1 modulator	D2 PAM	D2 ag	CtBP-E1A blk
26	O=C(Nc1cccnc1Cl)C1c2ccccc2Oc2ccccc21	0.4	7	1.5%	-9	-1.6	11
27	COc1cc(OC)cc(C(=O)OCC(=O)Nc2ccc(F)cc2F)c1	0.9	-17	5.5%	3	-6.5	13
28	CC(C)CN(CC(C)C)C(=S)NC1CCCCC1	0.4	-22	2.5%	2	1.5	7
29	COc1ccccc1NC(=O)C(C)OC(=O)C1CC(=O)N(Cc2ccco2)C1 (configuration not stated)	-0.4	12	-0.1%	-17	-2.0	-2
30	S=c1[nH]nc(-c2ccc3ccccc3n2)n1-c1ccccc1	1.6	5	-1.4%	-18	-2.5	12
31	CC(C(=O)Nc1nc2ccccc2s1)n1cc([N+](=O)[O-])cn1 (configuration not stated)	0.0	0	1.7%	2	1.9	13
32	Cc1onc(-c2ccccc2Cl)c1C(=O)O/N=C(\N)c1ccccc1	-0.8	2	-1.3%	?	43*	1
33	CCC(c1nnnn1C1CCCC1)N1CCC(C(N)=O)CC1 (configuration not stated)	0.6	-4	-0.3%	-5	9.8	.
34	S=c1[nH]nc(-c2cc(-c3ccccc3)n[nH]2)n1/N=C/c1ccccc1	1.9	-13	4.3%	-12	2.0	-14
35	C[C@@H]1CN([C@@H](C)CO)C(=O)c2cc(Br)cnc2O[C@H]1CN(C)C(=O)c1ccccc1F	.	5	0.1%	.	-2.8	-7
36	CCN(CC)Cc1c(C(=O)N/N=C(\C)c2ccncc2)nnn1-c1nonc1N	-0.6	-9	0.5%	-2	-2.8	2
37	CCOC(=O)CNS(=O)(=O)c1ccc(C)cc1	-0.1	4	1.0%	-12	-2.0	-4
38	Cc1c(/C=C2\SC(=Nc3cccc(C(=O)O)c3)NC2=O)c2ccccc2n1C	.	?	0.4%	-3	-5.9	?
39	COc1ccc(C)cc1NC(=O)NNC(=O)C1CCC(C(C)(C)C)CC1 (configuration not stated)	4.3	-4	5.0%	-18	-17	5
40	Cc1ccc2nc(NC(=O)CSCC(=O)OCC(=O)c3ccc(Br)cc3)sc2c1	0.3	16	3.0%	-17	0.4	-11
41	COc1ccc(CN2C(=O)C(CC(=O)NCCc3ccccn3)CC(C(=O)N(C(C)C)C(C)C)=C2C)cc1 (configuration not stated)	-0.3	-2	-1.4%	1	-1.3	5
42	CCC1Cc2[nH]c(=S)[nH]c(=O)c2C(c2ccc(F)cc2)O1 (configuration not stated)	0.0	1	-0.9%	-6	-1.7	11
43	CC(=O)Nc1c(-c2ccc(C)cc2)nc2ccc(Cl)cn12	-0.1	-1	1.0%	-11	0.8	-6
44	COc1ccc([N+](=O)[O-])cc1NS(=O)(=O)c1cc(C(=O)O)ccc1OC	-0.5	8	1.1%	-12	-5.0	.
45	COc1cccc(-c2n[nH]c(=S)n2Cc2ccco2)c1	-0.6	-8	-0.8%	-16	-1.4	-18
46	Cc1ccc(S(=O)(=O)N2CN(Cc3ccco3)c3nc4ccccc4nc32)cc1C	0.1	-7	1.5%	-5	-1.7	0
47	COc1ccc(OCC(=O)N/N=C(/C)Cc2ccccc2)cc1	1.3	-1	-1.4%	-4	-5.4	-9
48	O=C(NCc1ccccn1)c1cc(S(=O)(=O)N2CCN(c3ccccc3)CC2)ccc1Cl	-0.5	0	3.2%[38.3 µM]	4	2.5	-6
49	Cc1cccc(Oc2coc3cc(O)ccc3c2=O)c1	1.0	-3	1.9%	-1	5.6	-9
50	CCc1sc(C(=O)Nc2cccc(-n3cnnn3)c2)cc1C	0.3	-8	2.9%	0	-4.8	-5

Additional structures
cpd	mol	TRPML1 ag	Six1-Eya2 blk	PINK1 modulator	D2 PAM	D2 ag	CtBP-E1A blk
51	COc1cc(/C=N/NC(=O)c2cccnc2)cc2c1OCO2	0.2	-4	-1.3%	-6	0.7	-6
52	O=C(CN1CCN(c2ccccc2)CC1)Nc1scc2c1c(=O)oc1ccccc12	0.5	-1	0.4%	2	4.6	.
53	Cc1nn(CCOc2cccc(Cl)c2)c(C)c1[N+](=O)[O-]	3.3	-1	-0.3%	-5	-3.5	4
54	O=C(NCc1ccco1)c1nnc(Cc2ccc(F)cc2)o1	-0.7	3	1.1%	-2	-1.9	2
55	COC(=O)c1ccc(CC(=O)c2ccc(O)cc2O)o1	0.2	-3	2.1%	8	4.5	11
56	C[C@H](CO)N1C[C@H](C)[C@H](CN(C)C(=O)Nc2ccc(C(F)(F)F)cc2)Oc2c(NC(=O)c3ccncc3)cccc2C1=O	1.0	9	3.5%	-8	-1.1	17
57	O=C(CCNC(=O)Cn1ccc2ccccc2c1=O)NCCCN1CCOCC1	1.1	9	0.4%	6	-1.4	.
58	CCCCc1ccc(Nc2nc(CCC)cc(=O)[nH]2)cc1	3.5	-10	-5.1%	4	-0.1	-6
59	COc1c(-c2ccccc2)oc2c(ccc3occc32)c1=O	2.3	-2	-0.6%	0	0.3	-14
60	N=c1c2c3c(sc2ncn1CCN1CCOCC1)CCCC3	0.1	-1	2.1%	-7	-1.7	12
61	C/C(=N\NC(=O)Cc1ccc(F)cc1)c1ccc(O)cc1	1.2	-5	1.3%	-3	-5.6	.
62	O=C(Nc1ccc(Nc2ccncc2)cc1)c1ccc(Nc2ccnc3ccc([N+](=O)[O-])cc23)cc1	-0.8	8	3.4%	-3	-1.3	15
63	CC(=O)Nc1ccc(/C=C(\C#N)C(=O)NCc2ccccc2)cc1	0.3	2	-2.7%	-16	-3.4	2
64	COc1ccccc1C(=O)C1CCCN(Cc2cccc(OCCO)c2)C1 (configuration not stated)	0.2	0	-0.3%	-3	-5.8	-1
65	COc1cc(CNC(=O)c2cc3ccccc3oc2=O)cc(OC)c1OC	1.9	8	-0.8%	-7	5.5	2
66	CN(C)C(=O)c1cn(-c2ccccc2)nc1-c1cc2ccccc2oc1=O	0.2	-1	0.6%	-3	1.8	2
67	NC(=O)C1CCCN(CC(O)COCc2ccc(Cl)cc2)C1 (configuration not stated)	1.2	-3	0.8%	-6	1.4	.
68	CCN(CC)C(=O)c1cccc(NC(=O)c2ccccc2OCc2c(C)noc2C)c1	-1.0	-3	1.4%	-4	-0.7	.
69	CCN(Cc1ccc2c(c1)OCO2)C(=O)CSc1nc(C)nc2sc(C)c(C)c12	3.2	0	3.1%	-2	-2.6	7
70	CCSc1nnc(NC(=O)[C@@H](NC(=O)c2ccccc2)C(C)C)s1	1.6	-3	-1.0%	-15	-1.8	-15
71	O=C(Oc1c(CN2CCOCC2)cc(Cl)c2cccnc12)c1ccccc1Br	-0.4	-94*	6.5%	-24	-7.4	-69*
72	Cc1nc2ccc(NC(=O)c3cccc(S(=O)(=O)N(C)c4ccccc4)c3)cc2s1	2.0	-24	2.8%	-10	4.4	3
73	CN1CC=C2C(C#N)=C(N)C(C#N)(C#N)C(CCc3ccccc3)C2C1 (configuration not stated)	2.2	?	?	-6	-0.7	-28
74	COc1cc(/C=C/C(=O)O[C@H]2[C@H](O[C@@H]3O[C@@H](C)[C@H](O)[C@@H](O)[C@H]3O)[C@@H](O)[C@H](OCCc3ccc(O)c(OC)c3)O[C@@H]2CO)ccc1O	-0.6	3	0.6%	-23	0.2	2

Three compounds already listed, arranged by the value under CtBP-E1A blk, descending:
No. | SMILES | CtBP-E1A blk
58 | CCCCc1ccc(Nc2nc(CCC)cc(=O)[nH]2)cc1 | -6
70 | CCSc1nnc(NC(=O)[C@@H](NC(=O)c2ccccc2)C(C)C)s1 | -15
73 | CN1CC=C2C(C#N)=C(N)C(C#N)(C#N)C(CCc3ccccc3)C2C1 (configuration not stated) | -28
